High-throughput results (PubChem BioAssay)
YopH PTP inh – YopH (Yersinia) phosphatase inhibition; AID 898; inhibition, %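 (about 10 µM by stock and volumes)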; fluorescence Ex485/Em525; 140,000 compounds, 0.16% hits;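 active = inhibition of 50% or more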;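 note: controls were vehicle for no effect and minimum signal wells for full effect; inactives centre near -20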
Arbovirus anti – antivirals against arbovirus infection; arbovirus infection cell-based antiviral screen; inhibition, % at 10 µM; 200,000 compounds, 0.37% hits; AID 1251;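 active = inhibition from about 30%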;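 note: bluetongue infection of BSR cells; cell survival read as ATP light after 72 h; 0% = infected wells without compound and 100% = uninfected wells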
RecA splice inh – Mtb RecA intein splicing inhibition; AID 2221; P9WHJ3; cell-free RecA intein splicing, fluorescence; inhibition, %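 (about 9 µM by stock and volumes)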; 290,000 compounds, 0.75% hits; in the data active = inhibition above about 30%; inconclusive = no clear call, values can overlap the other calls;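 note: 0% = vehicle wells and 100% = reference inhibitor control wells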
Target sequence (P9WHJ3 whole entry, looked up, canonical isoform): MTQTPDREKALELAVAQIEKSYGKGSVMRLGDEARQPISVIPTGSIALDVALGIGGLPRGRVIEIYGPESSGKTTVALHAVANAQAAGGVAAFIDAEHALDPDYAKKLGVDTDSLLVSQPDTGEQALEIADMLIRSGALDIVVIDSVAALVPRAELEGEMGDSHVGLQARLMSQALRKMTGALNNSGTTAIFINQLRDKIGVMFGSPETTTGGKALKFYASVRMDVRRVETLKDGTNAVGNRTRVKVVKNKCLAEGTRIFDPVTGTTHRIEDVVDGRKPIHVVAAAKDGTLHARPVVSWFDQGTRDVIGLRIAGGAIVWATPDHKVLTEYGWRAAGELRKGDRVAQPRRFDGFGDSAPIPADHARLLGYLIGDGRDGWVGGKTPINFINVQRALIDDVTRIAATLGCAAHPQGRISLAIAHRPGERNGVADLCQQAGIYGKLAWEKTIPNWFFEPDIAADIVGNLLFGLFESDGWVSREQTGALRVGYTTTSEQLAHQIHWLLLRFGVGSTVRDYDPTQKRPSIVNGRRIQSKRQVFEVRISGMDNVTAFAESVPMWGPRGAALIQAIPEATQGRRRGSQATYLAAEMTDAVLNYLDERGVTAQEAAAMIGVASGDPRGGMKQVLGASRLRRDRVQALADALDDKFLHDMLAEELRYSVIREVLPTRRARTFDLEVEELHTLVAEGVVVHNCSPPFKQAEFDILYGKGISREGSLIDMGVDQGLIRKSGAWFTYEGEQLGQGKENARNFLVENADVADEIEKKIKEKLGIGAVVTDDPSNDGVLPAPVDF
Mtb H37Rv – M. tuberculosis H37Rv growth inhibitors, H37Rv strain (AID 1626) | M. tuberculosis H37Rv growth inhibition; higher % means a stronger effect | inhibition, % at 10 µM, or IC50 in µM where a hit was titrated | 220,000 compounds, 0.95% hits;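 active = confirmed in a dose series; inconclusive = inhibition above 80% but not taken into the dose series; inactive = below 80% or under 30% at every dose of the series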;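 note: bacteria incubated seven days before Alamar blue readout; 0% = bacteria only wells and 100% = bacteria with antibiotic wells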
Mtb bLac sens – beta-lactam sensitization of Mtb H37Rv. M. tuberculosis H37Rv growth with meropenem, percent inhibition; hits of this screen are not shown here. inhibition, % at 25 µM. 330,000 compounds, 0.27% hits;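 active = about 74% or more and at least 40 points above the plate without the antibiotic, then above 30% in a dose series; inconclusive = first-round hits that could not be retested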;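 note: growth measured after seven days incubation then overnight dye step; 0% = bacteria only wells and 100% = bacteria with antibiotic; twin plates without the antibiotic show which effects depend on it; some results filed as inactive read as strong as hits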
Arbovirus anti repeat – recorded beside Arbovirus anti, whose call it bears; inhibition, %; measured here: 10K subset replicate screen; many hits read low in the repeat;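 first of two repeat runs on a subset; 0% = infected and 100% = uninfected wells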
* marks the source's active call; other numbers are inactive results; ? = inconclusive; / = not tested or not shown; & = joins results of further samples. An excerpt; rates above refer to the full screens.

SMILES	YopH PTP inh	Arbovirus anti	RecA splice inh	Mtb H37Rv	Mtb bLac sens	others
S=c1[nH]nc(COc2ccc(Cl)cc2)o1	-39	-5	2.9	-12%	-12
COc1ccc(S(=O)(=O)N2CCC(C(=O)NC3CC(C)(C)NC(C)(C)C3)CC2)cc1	/	/	-4.0	/	-3
COc1ccc(N(C(=O)c2cccnc2)S(=O)(=O)c2ccc(Cl)cc2)cc1	/	/	2.1	/	?
Cc1cc(C2CC(=O)Nc3ccccc3S2)c(C)s1 (centres undefined)	/	/	-0.1	-9%	3
O=C(Cc1ccc(S(=O)(=O)N2CCCC2)s1)Nc1nc2c(s1)CCCC2	-117	9	4.6	2%	53
Cc1ccc(CSC2=NCCN2S(=O)(=O)c2ccccc2)cc1	/	14	6.8	-1%	4
O=S(=O)(c1ccccc1F)N1CCC(c2nc3ccccc3[nH]2)CC1	/	/	0.6	/	13
COc1ccc(/C=C2\SC(=S)N(CCCC(=O)Nc3ccccc3C(=O)O)C2=O)cc1OC	/	/	24	/	6
COc1cc(NC(=O)CCC(=O)OCCCC(F)(F)C(F)(F)F)nc(OC)n1	/	-2	-5.0	-5%	-2
COc1ccc(C=O)cc1CSc1ncccc1C(=O)O	/	/	-0.1	/	-4
CCN1C(=O)C(O)(C2COC(C)(C)CC2=O)c2ccccc21 (centres undefined)	3	-8	/	0%	48
COc1cc2[nH]c(C(=O)N3CC(C)OC(C)C3)cc2c(OC)c1OC (centres undefined)	/	/	-0.6	/	-1
COc1ccc(NC(=O)CSc2nnc(-c3ccoc3C)n2CC2CCCO2)cc1 (centres undefined)	-37	5	-0.1	0%	-9
Nn1c(SCC(=O)Nc2ccc3c(c2)OCCO3)nnc1-c1ccccn1	-24	1	-2.4	/	6
Cn1c(C(=O)N2CCN(c3ccc([N+](=O)[O-])cc3)CC2)cc2c(=O)[nH]c3ccccc3c21	/	2	-0.1	3%	/
NC(N)=N/N=C/c1c(Cl)cccc1Cl	-24	6	-1.3&1.3	18%&0%	-2&10
CSCCC(NS(=O)(=O)c1ccccc1F)C(=O)NCCCn1nc(C)cc1C (centres undefined)	/	/	-0.9	/	-2
CC(=O)Nc1ccc(S(=O)(=O)NC2CC(=O)N(c3ccc(C)c(C)c3)C2)cc1 (centres undefined)	/	/	-0.6	/	-3
Cc1cc(/C=N/NC(=O)c2cccc([N+](=O)[O-])c2)c(C)n1-c1ccc(Cl)cc1Cl	-32	-17	2.5	11%	92
O=C(COc1coc(CN2CCN(c3ccccc3)CC2)cc1=O)Nc1ccccc1	/	/	-0.8	/	34
COC(=O)N(NC(=O)C(O)(C(C)C)C(C)C)c1ccccc1	/	/	-3.3	-15%	-13
COc1ccc(CNC(=O)C2CCCN(S(=O)(=O)c3cnc[nH]3)C2)cc1 (centres undefined)	-36	13	/	-10%	-10
CC(=O)N1CCN(c2ccc(NC(=O)c3cc(Cl)ccc3Cl)cc2)CC1	/	/	-1.7	/	95
Cc1ccc(C(c2nnnn2Cc2cccs2)N2CCN(C(=O)c3ccco3)CC2)cc1 (centres undefined)	-38	12	4.6	5%	7
COC(=O)c1[nH]c2ccc(C)cc2c1NC(=O)CN1CCC(C)CC1	-113	2	0.9	-6%	-1

Reprinted from the part before: 3 entries, followed by the next part.
SMILES	YopH PTP inh	Arbovirus anti	RecA splice inh	Mtb H37Rv	Mtb bLac sens	others
CC(=O)N1CCN(c2ccc(NC(=O)c3cc(Cl)ccc3Cl)cc2)CC1	/	/	-1.7	/	95
Cc1ccc(C(c2nnnn2Cc2cccs2)N2CCN(C(=O)c3ccco3)CC2)cc1 (centres undefined)	-38	12	4.6	5%	7
COC(=O)c1[nH]c2ccc(C)cc2c1NC(=O)CN1CCC(C)CC1	-113	2	0.9	-6%	-1
Fc1ccccc1CNc1ccc(Cl)c(Cl)c1	-16	/	7.2	8%	5
CC(=O)Nc1ccc(C#Cc2ccc(NC(C)=O)cc2)cc1	-5	4	-2.6	3%	-8
COc1cccc(NC(=O)Nc2cccs2)c1	-3	-12	2.9	3%	-16
Cc1cc(C)nc(SCc2cc(=O)c(OC(=O)c3ccc(S(=O)(=O)N4CCCC4)cc3)co2)n1	-28	0	0.4	-6%	-2
CCCc1nnc(NC(=O)CCC(=O)N2CCCCC2CC)s1 (centres undefined)	-35	3	-1.1	-10%	-4
Cc1n[nH]c(=O)c2c(NC(=O)CSc3ccccc3F)oc(C)c12	/	/	1.8	/	-11
Cc1cccc(C(=O)N(NC(=O)Oc2ccccc2)C(C)(C)C)c1	-24	-1	2.7	-2%	-6
CCOc1ccccc1NC(=O)c1cc2ccccc2oc1=O	/	/	-1.6	/	23
CCOc1ccc(CC(=O)N2N=C(C)CC2(O)C(F)(F)F)cc1 (centres undefined)	-23	-1	-0.4	-4%	2
O=C(CSc1nc2ccccc2c(=O)n1-c1ccccc1)N1CCc2ccccc2C1	-29	7	2.1	-1%	1
O=C(c1ccc(N2CCCCC2)c([N+](=O)[O-])c1)N(c1ccccn1)c1ccccn1	/	1	13	-1%	11
CCN(CC)CCCNC(=O)CCc1c(C)n(CC)c2cc(-c3ccccc3OC)nn2c1=O	/	/	-0.2	/	-1
COCCn1c(CN2CC(C)CC(C)C2)nc2c1c(=O)n(C)c(=O)n2C (centres undefined)	/	4	2.5	-5%	-10	Arbovirus anti repeat=6
COc1ccccc1CNc1ccc([N+](=O)[O-])cc1C	/	-3	3.5	2%	0
COc1ccc(S(=O)(=O)N2CCc3ccccc32)cc1C(=O)OCc1nnc(-c2ccccc2)o1	-46	10	4.5	3%	-4
CCOc1ccccc1CN1C(=O)C2(OCCO2)c2ccccc21	/	/	0.9	/	-3
CC1=C(C(N)=O)C(c2ccccc2)n2nc(-c3ccncc3)nc2N1 (centres undefined)	-21	-1	-1.7	-6%	-4
O=C(OCc1ccccc1)c1cc(S(=O)(=O)N2CCCCC2)ccc1N1CCOCC1	/	/	-1.5	/	4
O=C(CNC(=O)c1ccccc1)NC1(C(=O)NC2CCCC2)CCCCC1	1	-2	0.0	0%	?
Cc1onc(-c2ccccc2)c1C(=O)Nc1cc(C(F)(F)F)ccc1N1CCOCC1	-46	-17	1.2	-5%	1
COC(=O)C1=C(NC(=O)C2CCCCC2)CCS1	-29	12	/	4%	/
CC(=O)Nc1ccccc1NC(=O)c1ccccc1-c1ccccc1	/	/	-0.3	/	2
COc1ccc2c(c1)-c1nc(/N=C/c3ccccc3O)sc1CC2	-3	1	4.7	3%	6
COc1ccc(-c2[nH]ncc2CN2CCN(C3CCCCC3)C(=O)C2)cc1F	/	0	-0.4	7%	2
COc1cc2c(cc1OC)C(COc1ccc(F)cc1)N(C(C)=O)CC2 (centres undefined)	/	/	-2.6	/	1

Among those listed so far, these have a COOH group:
SMILES	YopH PTP inh	Arbovirus anti	RecA splice inh	Mtb H37Rv	Mtb bLac sens	others
COc1ccc(/C=C2\SC(=S)N(CCCC(=O)Nc3ccccc3C(=O)O)C2=O)cc1OC	/	/	24	/	6
COc1ccc(C=O)cc1CSc1ncccc1C(=O)O	/	/	-0.1	/	-4

The list continues:
SMILES	YopH PTP inh	Arbovirus anti	RecA splice inh	Mtb H37Rv	Mtb bLac sens	others
COCCCNC(=O)c1oc2ccc(S(=O)(=O)N3CCOCC3)cc2c1C	/	/	-1.6	/	0
Cc1ccc(C)n1-n1c(C)nc2sc3c(c2c1=O)CCCCC3	-40	7	11	-11%	18
Cc1ccc(N(C(=O)CNC(=O)c2ccco2)C(C(=O)NC2CCCCC2)c2cccnc2)c(C)c1 (centres undefined)	/	/	0.4	/	-4
O=C(CN1C(=O)S/C(=C/c2ccncc2)C1=O)Nc1ccccc1	/	/	0.9	/	-7
CN1C(=O)CN=C(c2ccc(Cl)cc2)c2cc(Cl)ccc21	-33	-16	2.8	0%	-7
C/C=C(\C)CN1CCC(Oc2ccc(C(=O)NCc3ccccn3)cc2)CC1	/	/	0.8	/	-3
CCNC(=O)N1CCCC(C(=O)c2ccc(C(F)(F)F)cc2)C1 (centres undefined)	/	/	0.4	/	1
CCCc1cc(=O)oc2cc(C)cc(OCC(=O)NCCCn3ccnc3)c12	/	/	-0.8	/	5
CN(Cc1ccon1)C(=O)CCc1nnc(CCCCc2ccccc2)o1	/	-2	1.0	-3%	0
O=C(Nc1nc(-c2ccc3c(c2)OCO3)cs1)c1ccncc1	-8	27	-1.5	8%	?
COc1ccc(N2CCN(C(CNC(=O)C3CCCCC3)c3cccnc3)CC2)cc1 (centres undefined)	-42	5	1.2	-4%	-7
S=C(Nc1cccnc1)Nc1ccccc1Br	/	3	1.5	-4%	3
Cc1ccc(C(=O)NC(C(=O)Nc2cccc(S(N)(=O)=O)c2)C(C)C)cc1 (centres undefined)	/	/	1.9	-5%	-10
CCCC(=O)Nc1sc(C)c(-c2ccc(OC)cc2)c1C#N	5	0	-0.7	4%	-2
NNC(=S)Nc1cccc(Cl)c1	/	/	-1.9	52%	100
COc1ccc(OC)c(Cc2nnc(CCC(=O)NC3C4CC5CC(C4)CC3C5)o2)c1 (centres undefined)	/	-10	0.4	-4%	3
S=C(NCc1ccco1)Nc1ccccc1Cl	/	/	2.4	2%	-1
Cc1noc(C)c1COc1ccccc1C(=O)N1CCN(S(=O)(=O)c2ccccc2F)CC1	/	/	1.6	/	-5
COc1ccc(F)cc1S(=O)(=O)NCC(c1ccco1)N1CCc2ccccc2C1 (centres undefined)	/	/	8.9	/	-4
Cc1ccnc(N/C=C(/NC(=O)c2ccccc2)C(=O)N/N=C\c2ccc(F)cc2)n1	-13	-10	3.7	-10%	-12
CC(C)C1Cc2c(C#N)c(N)n(C)c(=S)c2CO1 (centres undefined)	-7	-2	-2.4	/	-4
CC1(C)C(=O)OC(c2ccc([N+](=O)[O-])cc2)C(C)(C)C1=O (centres undefined)	/	/	-1.4	/	5
CCCCn1c(=O)[nH]c(=O)c2c1nc(-c1ccc(OC)c(Br)c1)n2CC(C)C	/	/	19	/	17
O=C(Cn1nnc(-c2ccncc2)n1)N(C1CCCCC1)C1CCCCC1	-45	5	3.0	4%	-6
CCOC(=O)Cn1nc(/C=C/c2ccc(C(C)C)cc2)ccc1=O	-29	13	5.6	18%	88

Next entries follow:
SMILES	YopH PTP inh	Arbovirus anti	RecA splice inh	Mtb H37Rv	Mtb bLac sens	others
O=C(NCc1ccncc1)c1ccc2nc(Cc3ccccc3F)oc2c1	/	/	-1.1	/	-4
CCOc1ccc(Br)cc1S(=O)(=O)Nc1cccc(S(=O)(=O)N(C)c2ccccc2)c1	-6	-21	5.1	0%	-3
CC1CCN(C(c2nnnn2CCc2ccccc2)C(C)C)CC1 (centres undefined)	/	5	2.2	4%	1
O=C1C(Cl)=C(N2CCOCC2)C(=O)N1c1ccccc1Cl	-3	5	86*	3%	95	Arbovirus anti repeat=6
O=C(Cn1c(=O)n(CC2CS2)c2ccccc21)N1CCCCCC1 (centres undefined)	/	27	-0.6	0%	-2
CCOC(=O)/C(C#N)=C1/SC(CC)C(=O)N1c1ccc(Br)cc1 (centres undefined)	16	0	4.5	-1%	-12
CCn1c(SCC(=O)N/N=C/c2ccc(C)o2)nnc1-c1ccc(C)cc1	-14	-10	3.0	-8%	-3
CCN(CC)c1ccc(/C=N/N2C(=O)c3ccccc3C2=O)c(O)c1	-32	-2	-15	5%	3
CC(C)c1cc(C(=O)O)c2cnn(C(C)C)c2n1	/	/	-0.9	2%	2
CC(=O)O[C@H]1C[C@@]2(C)[C@@H](C[C@@H](O)[C@H]3[C@@]4(C)CC[C@@H](O)[C@@H](C)[C@@H]4CC[C@@]32C)/C1=C(\CCC=C(C)C)C(=O)O	/	/	3.8	/	97&98
COc1ccc(CCNC(=O)CSc2nc(=O)n3cc(C)ccc3n2)cc1OC	/	/	-0.3	/	-8
Cc1ccc(NC(=O)CCOc2ccccc2)cc1	/	/	2.0	/	-9
CCOC(=O)c1ccc(NC(=O)CNS(=O)(=O)c2ccccc2)cc1	6	6	10	61%	56
CCC1=Nc2cc(C(=O)NCc3ccco3)ccc2Sc2ccccc21	-34	-6	8.3	9%	-3
CCc1ccc(N=C2NC(=O)CS2)cc1	/	/	-3.9	/	-3
Cc1cc(Br)cc2c1N(C)C(=O)C2(c1ccc(O)cc1)c1ccc(O)cc1	/	/	19	/	-5
Cc1ccccc1NC(=O)CC(=O)Nc1ccccc1C	/	/	-2.9	/	-1
CC1CN(C(=O)COC(=O)c2cc(S(N)(=O)=O)c(Cl)cc2Cl)CC(C)O1 (centres undefined)	/	/	-0.3	/	-2
CCc1ccn2cc(-c3ccc4c(c3)OCO4)nc2c1	/	/	3.6	7%	0
Cc1ccc(C)c(N2CCN(CCCNC(=O)Cn3c(=O)c4cccn4c4cccnc43)CC2)c1	/	/	0.6	/	7
COc1cc(C(=O)Oc2ccc(/C=N/NC(=O)c3ccncc3)cc2)cc(OC)c1OC	/	/	4.9	/	98
COCCSc1nnc(NC(=O)Cc2ccc(OC)c(OC)c2)s1	/	-19	-2.9	-5%	-1
